Screens deposited in PubChem by ICCB-Longwood Screening Facility, Harvard Medical School.
HCMV UL50-53 inh – cytomegalovirus nuclear egress complex inhibition; HTRF UL50-UL53 interaction, normalized percent inhibition; inhibition, % (concentration not given with the values); hit rate 0.15% among 190,000;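 active means both replicates at 50% or more, plus weaker picks with an unusually low signal ratio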;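 further: stock transfer was 100 nL into about 20 µL; 0% = negative control wells and 100% = wells with untagged competitor protein; inactives centre near -12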
Sa growth inh – inhibitors of Staphylococcus aureus growth at 42 °C; S. aureus RN4220 growth, OD600, 20 h; active compounds read low; relative growth, % (no concentration beside the values); hit rate 0.53% among 170,000;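 active means growth at 42 °C up to 50% and 20 or more points under that at 30 °C, or under 10% at both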;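 further: 300 nL library stock went into each well; scaled to the means of positive and negative controls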
GIV-Gai inh – blocks GIV peptide binding to rat Galpha-i3; P08753; Galpha-i3/FITC-GIV peptide fluorescence polarization, 90 min; active compounds read low; scaled: aluminum fluoride 0%, vehicle 100%; percent of control (FP), % (test concentration not listed); hit rate 0.42% among 210,000;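 active means replicate mean at 85% of control or lower, very high polarization wells dropped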;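 further: lower values mean more displacement of the GIV peptide from Galpha-i3; wells of about 15 µL received 100 nL stock; the first replicate is given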
Target sequence (P08753 whole entry, looked up): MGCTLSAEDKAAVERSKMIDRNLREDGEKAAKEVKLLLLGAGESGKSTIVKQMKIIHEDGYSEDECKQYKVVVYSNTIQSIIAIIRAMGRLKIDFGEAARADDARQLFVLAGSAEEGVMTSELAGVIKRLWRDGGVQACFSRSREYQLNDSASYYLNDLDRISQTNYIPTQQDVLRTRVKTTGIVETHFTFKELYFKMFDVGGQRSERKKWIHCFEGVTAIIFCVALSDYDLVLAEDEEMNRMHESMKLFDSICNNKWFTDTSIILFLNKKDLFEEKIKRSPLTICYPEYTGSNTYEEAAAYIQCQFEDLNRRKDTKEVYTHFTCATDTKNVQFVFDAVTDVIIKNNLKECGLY
Sa growth inh second temp – further read-out of Sa growth inh, marked with its call; relative growth, %; measured here: growth at 30 °C;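 optical density after 20 h as mean of two plates; 100% = untreated growth and lower means inhibition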
Starred values were filed as active, the others as inactive; / = not tested or not shown; & = joins results of further samples.

SMILES	HCMV UL50-53 inh	Sa growth inh	Sa growth inh second temp	GIV-Gai inh
CCN(C(=O)Cn1nc2c3cc(F)ccc3n(Cc3cccc(C)c3)cc-2c1=O)c1cccc(C)c1	/	112.2	95.2	105.6
Clc1ccc(N2CCN(c3ccc(Cl)nn3)CC2)cc1	-10.4	/	/	105.7
COc1ccccc1NC(=O)N1CCN(S(=O)(=O)c2ccc3c(ccn3C)c2)CC1	8.7	/	/	103.7
N#Cc1cc2c(nc1S(=O)(=O)Cc1ccccc1)CCCC2	22.5	92.6	97.4	102.0
O=C(O)c1ccccc1C(=O)N1CCN(Cc2ccccc2)CC1	-24.7	99.9	89.0	/
CC1(C)CC2(CC(C)(C)NC(=O)N2)NC(=O)N1	-15.6	99.5	80.7	102.4
Cc1ccsc1/C=N/c1sc2c(c1C#N)CCCC2	-18.3	88.7	82.5	96.4
CCCCN(CC)CCCNC(=O)C1CCN(c2nc3ccc(CC)cc3s2)CC1	7.4	101.0	97.0	100.7
CS/C(N)=N\N=C(/C)c1cc2ccccc2o1	-78.0	88.5	78.1	103.1
CCOC(=O)c1cnc2cc(C)nn2c1-c1ccccc1	-21.8	95.4	88.5	/
Cc1ccc(CNC(=O)CSc2nc(=O)[nH]c3c2CCCC3)cc1	/	113.4	85.9	96.8
C=CCn1c(=S)sc2c(N(Cc3ccccc3)Cc3ccccc3)ncnc21	-2.3	72.3	82.3	94.6
COc1cc(CN(C(=O)c2cccc(C)c2)c2ccccn2)cc(OC)c1OC	-23.5	98.2	82.7	100.4
Cc1noc(C)c1CSc1ccc(S(=O)(=O)N(C)C)cn1	-7.3	91.4	97.9	/
O=C(CN1C(=O)c2ccccc2C1=O)Nc1ccc2c(c1)N(C(=O)c1ccccc1)CCC2	-35.1	/	/	106.9

4 compounds from above, arranged by heavy-atom count, smallest number first.
SMILES	HCMV UL50-53 inh	Sa growth inh	Sa growth inh second temp	GIV-Gai inh
CS/C(N)=N\N=C(/C)c1cc2ccccc2o1	-78.0	88.5	78.1	103.1
Cc1ccsc1/C=N/c1sc2c(c1C#N)CCCC2	-18.3	88.7	82.5	96.4
CCCCN(CC)CCCNC(=O)C1CCN(c2nc3ccc(CC)cc3s2)CC1	7.4	101.0	97.0	100.7
CCN(C(=O)Cn1nc2c3cc(F)ccc3n(Cc3cccc(C)c3)cc-2c1=O)c1cccc(C)c1	/	112.2	95.2	105.6

Additional structures:
SMILES	HCMV UL50-53 inh	Sa growth inh	Sa growth inh second temp	GIV-Gai inh
Fc1ccc(CSc2nncn2NCc2ccc3c(c2)OCO3)cc1	-14.2	100.5	80.2	101.0
O=C(Nc1cccc(F)c1)c1ccccn1	15.7	90.9	93.0	/
O=C1/C(=C/c2ccc(Cl)cc2)SC(=Nc2ccccc2)N1N1CCOCC1	-13.1	87.2	86.9	/
N#C/C(=C\Nc1cccc(C(F)(F)F)c1)c1nc(-c2cc3cc([N+](=O)[O-])ccc3oc2=O)cs1	-27.4	/	/	103.6
CC(C)N(CCc1ccncc1)C(=O)Nc1ccc(F)cc1	/	105.8	90.0	101.5
O=C(CN1C(=O)C2CC=CCC2C1=O)NCc1ccccc1F (stereo not given)	0.0	96.0	91.9	/
COc1ccc(-c2cc(O)c3c(C)oc(C)c3c(=O)c2)cc1	/	92.2	73.1	155.6
CCOC(=O)C1=C[C@@H](OC(CC)CC)[C@H](NC(C)=O)[C@@H](N)C1	-15.1	93.9	83.3	101.2
CNc1ccc(C2(O)C(=O)c3ccccc3C2=O)cc1	-32.4	133.4	84.0	/
Cc1ccc(C(C)C)c(OCC(=O)Nc2ccc3c(c2)NC(=O)CO3)c1	-14.6	/	/	101.1
Cc1cc(C)cc(NC(=O)N2CCN(c3cc(-c4noc(C)n4)ccc3C)CC2)c1	/	97.4	92.4	97.4
Cc1nn2c3c(cnc2c1-c1ccc(F)cc1)C(=O)CC(c1ccccc1)C3 (stereo not given)	-16.7&-24.7	89.2	80.0	107.6&97.3
Cc1noc(C)c1S(=O)(=O)Nc1cc2c(cc1Oc1ccccc1)n(C)c(=O)c(=O)n2C	-17.6	/	/	105.1
CCC(=O)N1CCc2cc(S(=O)(=O)NC(C(=O)N3CCN(c4ccc(F)cc4)CC3)C(C)C)ccc21 (stereo not given)	4.4	107.8	86.0	99.3
CC1CN(Cc2nnc(-c3ccccc3)o2)CC(C)O1 (stereo not given)	-2.4	105.4	100.5	107.7
COc1ccc2cc(OC)ccc2c1	-13.9	93.9	98.5	103.6
O=C(/C=C1\Sc2ccccc2NC1=O)NCc1ccc2c(c1)OCO2	3.9	106.6	93.6	105.6
O=C(N/N=C/c1ccncc1)c1ccc(Cn2nnc(-c3ccccc3)n2)cc1	-11.8	91.5	94.5	/
Cc1occc1-c1nnc(SCc2ccc(C(C)(C)C)cc2)n1N	0.6	111.8	90.2	/
CC(Sc1nnc2ccc3ccccc3n12)C(=O)Nc1ccccc1 (stereo not given)	-6.1	/	/	96.5
CC1(C)CC(=O)C2=C(C1)Nc1ccccc1N(C(=O)Cc1ccc(Cl)cc1)C2c1cccs1 (stereo not given)	-12.0	/	/	101.9
Cn1nc(C(=O)NCCCN2CCN(c3ccccc3)CC2)c2c1-c1ccccc1OC2	/	90.7	92.1	103.0
Cc1ccccc1CSc1nc(=O)n(C2CCCC2)c2c1CCC2	-17.8	/	/	97.4
CC(C)(C)C(=O)Nc1oc(-c2ccccc2)c(-c2ccccc2)c1C#N	-8.7	81.6	90.3	/
COc1ccccc1OCC(=O)Nc1cc(C)nn1-c1ncnc2c1cnn2-c1ccc(F)cc1	-3.6	/	/	105.8
COc1cccc(NC(=O)CSc2nnnn2C(C)C)c1	2.0	102.8	82.8	104.3
COC(=O)c1ccccc1NS(=O)(=O)c1c(C)nc2sccn2c1=O	/	114.8	80.2	104.2
O=C(NC(c1ccccc1)c1ccccc1)C1COC2C=CC=CC2O1 (stereo not given)	-13.6	118.4	91.6	/
O=C1CC(c2ccsc2)c2c(n[nH]c2-c2ccccc2)N1 (stereo not given)	-27.5	105.2	90.5	102.9
CCc1ccc(NC(=O)c2cccc3c2C(=O)N(C2CCCCC2)C3)cc1	/	117.0	96.1	100.8
CC(=O)N[N+]1=C(N)c2ccccc2C1	/	112.6	87.5	95.5
COc1ccc(-c2noc(CCC(=O)NC3CCN(Cc4ccccc4)CC3)n2)cc1	-2.5	95.3	91.7	100.6
CCOc1ccc(C(=O)Nc2cccc(N3CCCS3(=O)=O)c2)cc1OCC	10.8	/	/	103.9
CCOC(=O)CSc1nc(-c2ccc(F)cc2)cc(C(F)(F)F)c1C#N	-16.4	103.4	88.7	100.1
O=C(Nc1c(Cl)ccc2nsnc12)c1ccc2c(c1)OCCO2	-89.3	/	/	99.4
O=C(CN1C(=O)CCCc2ccccc21)NCCCN1CCCCC1	-2.0	/	/	106.8
Cc1ccc(C)c(OC(=O)NC(C)(C(F)(F)F)C(F)(F)F)c1C	/	123.2	88.0	100.8
CCOc1ccc2nc(NCCNC(=O)COc3ccccc3)c(C#N)cc2c1	-17.9	105.2	82.9	106.0
CC(=O)N1c2ccccc2C(=O)C1N1CCN(c2cc(Cl)ccc2C)CC1 (stereo not given)	/	102.5	97.0	110.0
CCC(=O)c1ccc2cc(OC)ccc2c1	/	116.3	94.2	100.5
Cc1ccc(S(=O)(=O)NCCn2c(C(F)(F)F)nc3cccnc32)cc1C	-10.4	/	/	104.2
Cc1cc(Cl)ccc1OCC(=O)N(Cc1ccc(N(C)C)cc1)CC1CCCO1 (stereo not given)	-3.6	91.9	96.7	106.8
CCSc1nc2ccccc2c(=O)n1CCOC	14.1	95.3	104.0	101.6
N#Cc1ccc(NC(=O)c2ccccc2C(=O)O)cc1	-6.6	109.5	85.7	109.7
CCC1CCCCN1S(=O)(=O)c1ccc(C(=O)Nc2sc3c(c2C(N)=O)CCC3)cc1 (stereo not given)	/	81.8	78.3	103.5
Cc1ccc2c(nc3s/c(=C/c4cc5c(cc4Br)OCO5)c(=O)n32)c1C	1.2	/	/	111.1
Nc1nonc1OCCNc1ccccc1	-14.9	83.7	75.9	/
CC(Sc1nnc(-c2ccc(Cl)cc2)n1C)c1nc2ccccc2c(=O)[nH]1 (stereo not given)	-17.4	99.5	88.2	103.5
O=C(O)CC1NC(=S)N(Cc2ccccc2)C1=O (stereo not given)	-28.9	85.3	84.3	100.3
CC1(C)C2CCC1(CS(=O)(=O)N1CCc3ccccc31)C(=O)C2 (stereo not given)	-13.7	101.1	93.8	/
CCCc1cc(=O)[nH]c(Nc2ccc(OCC)cc2)n1	-3.4	100.0	86.4	105.8
CCOc1cccc(C2c3[nH]c4ccccc4c3CCN2C(=O)CSCc2ccc(F)cc2)c1 (stereo not given)	/	107.5	109.4	102.3
CC1CN(C(=O)c2cc3c(=O)n4ccccc4nc3s2)CC(C)O1 (stereo not given)	-32.2	99.6	88.1	107.9
O=C(c1nnc(-c2ccc(Cl)cc2)o1)C1CCCC1	-13.2	94.2	97.3	/
CCOC(=O)N1CCN(c2ncc3c(n2)CC(c2ccc(OC)c(OC)c2)CC3=O)CC1 (stereo not given)	-21.4	94.7	87.3	104.8
CCn1c2ccccc2c2cc(CN3CCN(C(=O)c4c(OC)cccc4OC)CC3)ccc21	/	81.6	54.3	103.7
O=C(COc1coc(CN2CCc3ccccc32)cc1=O)Nc1ccc2c(c1)OCCO2	-22.2	109.6	78.5	104.1
COCCCNC(=O)N1CCN(c2nnc(C)c3c(C)n(-c4ccc(Cl)cc4)nc23)CC1	/	91.1	86.5	104.1
CC(CCc1ccccc1)NC(=O)CCc1nnc2ccc(N3CCOCC3)nn12 (stereo not given)	-12.1	90.3	90.9	103.7&96.5
Cc1nn(CC(C)C)c(Cl)c1/C=C/C(=O)O	-9.9	97.5	89.9	/

Brought forward from above: 5 compounds, then new ones.
SMILES	HCMV UL50-53 inh	Sa growth inh	Sa growth inh second temp	GIV-Gai inh
CCn1c2ccccc2c2cc(CN3CCN(C(=O)c4c(OC)cccc4OC)CC3)ccc21	/	81.6	54.3	103.7
O=C(COc1coc(CN2CCc3ccccc32)cc1=O)Nc1ccc2c(c1)OCCO2	-22.2	109.6	78.5	104.1
COCCCNC(=O)N1CCN(c2nnc(C)c3c(C)n(-c4ccc(Cl)cc4)nc23)CC1	/	91.1	86.5	104.1
CC(CCc1ccccc1)NC(=O)CCc1nnc2ccc(N3CCOCC3)nn12 (stereo not given)	-12.1	90.3	90.9	103.7&96.5
Cc1nn(CC(C)C)c(Cl)c1/C=C/C(=O)O	-9.9	97.5	89.9	/
O=C(c1ccc(=O)[nH]c1)N1CCCSC1=Nc1cccc(C(F)(F)F)c1	-9.3	101.6	87.3	/
COC(=O)c1ccc2nc(NC(=O)CN3C(=O)CCC3=O)sc2c1	1.9	98.8	62.7	/
CC(C)C(=O)Nc1ccc2c(c1)OCCO2	-9.6	112.8	88.7	/
Cc1ccc(C(=O)N2CCC(C)CC2)cc1	-0.4	111.5	94.5	/
Cc1ccc(F)cc1S(=O)(=O)NC1CCCCNC1=O (stereo not given)	14.0	88.7	97.5	100.8
O=C(COc1cccc2ccccc12)N1CCN(c2ccccn2)CC1	1.1	101.7	82.6	101.6
COc1cc(CO)ccc1OCc1ccc(C(=O)O)cc1	-1.2	99.9	97.2	101.2
O=C(CCn1cnc2ccccc2c1=O)Nc1ccccn1	-15.2	95.2	76.8	99.6
COc1ccc(OC)c(CCNc2ncnc3onc(-c4ccc(Cl)cc4)c23)c1	/	121.2	94.6	105.1
Cc1nonc1C(=O)NCC(=O)O	-6.3	118.5	83.6	98.5
Cc1c(C(=O)/C=C/N(C)C)sc(=S)n1CCc1ccc(Cl)cc1	-36.2	116.9	90.5	106.5
CCCCCCn1nc(C(=O)OCc2nnc(-c3ccccc3)o2)c2ccccc2c1=O	-9.8	92.6	92.3	/
Cc1ccc(NCc2nnc(SCC(=O)c3ccc(C)cc3)n2C)cc1	18.8	93.4	99.7	103.7
Nc1ccc(C(=O)Oc2ccccc2)c(O)c1	-12.6	93.5	94.0	/
CCC(C)NC(=O)CSc1nc2cc3c(cc2c(=O)n1CCCC(=O)NCc1ccc2c(c1)OCO2)OCO3 (stereo not given)	/	97.7	89.6	102.4
Cc1ccc(CNC(=O)C2(c3ccc(Cl)cc3)CCC2)n1C	-15.0	113.0	88.7	/
COc1cc(NC(=O)C2CCCC2)c(C(=O)OCC(=O)N2CC(C)CC(C)C2)cc1OC (stereo not given)	-9.2	80.4	83.1	/
CCC(C)NC(=O)c1sc2nc(C)c(C(=O)Nc3ccc(C)cc3C)c(-c3ccc(NC(C)=O)cc3)c2c1N (stereo not given)	-30.9	95.1	84.5	103.8
N=C(N)N1CCN(c2ccccc2)CC1	-24.4	107.0	90.3	105.5
CCn1c(SCC(=O)Nc2cc(C)ccc2F)nnc1-c1ccccc1O	-27.7	90.9	80.9	108.3
CSc1nnc(CCCN)n1C1CCCC1	-17.8	100.5	97.9	/
CCC(=O)Nc1ccc(Oc2ccc(C)cc2)cc1	-7.4	86.8	88.7	/
COc1ccc(N2CCN(CCCNC(=O)c3ccc4nc(Cc5ccccc5)oc4c3)CC2)cc1	/	93.4	86.3	96.8
O=C(CSc1ccccc1)Nc1nnc(-c2ccccc2)o1	-29.6	85.9	78.4	98.7
CSc1nc(C)nc(N/C=C2\C(=O)c3ccccc3N(C)S2(=O)=O)n1	1.2	99.8	104.6	109.0
O=C(Oc1cccc(Br)c1)c1cccnc1	-9.8	101.6	79.5	104.4
